Assay outcomes from PubChem BioAssay.
NOMO-1 viab – STK33 inhibitor candidate reducing NOMO-1 cell viability. NOMO-1 AML viability, CellTiter-Glo luminescence, 72 h. inhibition, % (test concentration not listed). hit rate 7.5% among 37,000. AID 2330;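 active = most replicates above 80%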;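 also: wells of about 30 µL received 25 nL stock; 0% = median of vehicle wells and 100% = reference inhibitor level; the first replicate is given; inactives centre near 10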
An asterisk follows results filed as active.

SMILES | NOMO-1 viab
C[N+]1(C/C=C2/COCO2)CCCCC1 | 3
C[C@H](CO)N1C[C@H](C)[C@@H](CN(C)C(=O)Nc2ccc3c(c2)OCO3)Oc2ccc(N(C)C)cc2C1=O | 1
Cc1cccc(OCC(=O)Nc2cc(C(F)(F)F)ccc2N2CCOCC2)c1 | 47
CSc1n[nH]c(NC(=O)Nc2ccccc2)c1S(=O)(=O)c1ccc(Cl)cc1 | 17
Cc1nc(CSc2ncnc3sc4c(c23)CCC4)cs1 | 20
C[C@H](CO)N1C[C@H](C)[C@H](CN(C)C(=O)Nc2ccc3c(c2)OCO3)Oc2ccc(NC(=O)Nc3ccc4c(c3)OCO4)cc2C1=O | 10
Cc1ccc(S(=O)(=O)N(C)C[C@H]2Oc3c(NC(=O)NC4CCCCC4)cccc3C(=O)N([C@H](C)CO)C[C@H]2C)cc1 | 41
CSc1ccccc1-n1nnnc1SCCSc1ccccc1-n1nnnc1SC | 11
COc1ccc(NC(=O)c2ccc(OC(C)C(=O)O)cc2)cc1Cl (stereo unspecified) | -10
COc1ccc(NC(=O)N(C)C[C@@H]2Oc3ccc(NC(=O)Nc4ccc(C(F)(F)F)cc4)cc3CC(=O)N([C@H](C)CO)C[C@@H]2C)cc1 | 34
C[C@H](CO)N1C[C@H](C)[C@@H](CN(C)S(=O)(=O)c2ccccc2)Oc2ccc(NC(=O)Nc3ccc4c(c3)OCO4)cc2C1=O | -4
O=C(CCn1cnc2ccccc2c1=O)Nc1ccc(F)cc1 | -12
COc1ccc(CN(C)C[C@@H]2Oc3c(NC(=O)C4CC4)cccc3C(=O)N([C@H](C)CO)C[C@H]2C)cc1 | 21
C[C@@H]1CN([C@H](C)CO)C(=O)c2cccc(NC(=O)C3CCCCC3)c2O[C@@H]1CN(C)S(=O)(=O)c1ccc(Cl)cc1 | 23
O/N=C(/C(=N/O)c1ccccc1)c1ccccc1 | -6
CCOC(=O)CN(C)C1=NS(=O)(=O)c2ccccc21 | 9
COc1ccc(NC(=O)Cn2c(-c3ccccc3)nc3sc4c(c3c2=O)CCCC4)cc1 | 13
CCn1ncc(Br)c1C(=O)Nc1ccccc1C(=O)OC | -14
C[C@@H]1CN([C@@H](C)CO)C(=O)c2cc(NC(=O)Nc3ccc(C(F)(F)F)cc3)ccc2O[C@@H]1CN(C)S(=O)(=O)c1ccc(Cl)cc1 | 8
Nc1c2cnc(N3CCCC3)nc2nc(=O)n1-c1ccc(Cl)cc1 | 12
C[C@@H]1CN([C@H](C)CO)C(=O)Cc2cc(NC(=O)Cc3ccccc3)ccc2O[C@@H]1CN(C)C(=O)Nc1cccc2ccccc12 | 10
Cc1ccccc1-c1nnc(SCC(=O)Nc2ccc(Oc3ccccc3)cc2)n1C | -11
C[C@@H]1CN([C@@H](C)CO)C(=O)Cc2cc(NC(=O)Nc3ccc(F)cc3)ccc2O[C@@H]1CN(C)C(=O)Nc1ccccc1 | -12
CNC[C@@H]1OCCCC[C@@H](C)Oc2ccc(NS(C)(=O)=O)cc2C(=O)N([C@H](C)CO)C[C@@H]1C | 29
C[C@H](CO)N1C[C@H](C)[C@@H](CN(C)CC2CCCCC2)Oc2c(NC(=O)C3CCOCC3)cccc2C1=O | 16
C[C@@H]1CN([C@H](C)CO)C(=O)c2cc(NS(=O)(=O)c3ccc(F)cc3)ccc2O[C@@H]1CN(C)Cc1ccccc1 | -11
C[C@@H]1CN([C@@H](C)CO)C(=O)c2cc(NS(=O)(=O)c3ccc(Cl)cc3)ccc2O[C@@H]1CN(C)Cc1ccc(C(=O)Nc2ccccc2N)cc1 | 110*
COc1ccc(N(C(=O)c2ccccc2)S(=O)(=O)c2cccc([N+](=O)[O-])c2)cc1 | 37
C[C@@H]1CN([C@@H](C)CO)C(=O)c2cc(NS(=O)(=O)c3ccc(F)cc3)ccc2O[C@H]1CN(C)Cc1ccc(Oc2ccccc2)cc1 | 98*
CC(C(=O)Nc1ccc(Oc2ccccc2)cc1)N(c1ccc(Cl)cc1)S(C)(=O)=O (stereo unspecified) | 28
C[C@H](CO)N1C[C@H](C)[C@@H](CN(C)C(=O)Nc2ccc(C(F)(F)F)cc2)Oc2c(NC(=O)C3CCCCC3)cccc2C1=O | 18
C[C@@H]1CN([C@@H](C)CO)C(=O)c2cc(NC(=O)CCCN(C)C)ccc2O[C@@H]1CN(C)Cc1ccc(Cl)c(Cl)c1 | 31
CCOc1cccc2cc(C(=O)NCc3cccnc3)c(=O)oc12 | 6
C[C@H](CO)N1C[C@H](C)[C@@H](CN(C)Cc2ccccc2)Oc2c(NS(=O)(=O)c3ccc(Cl)cc3)cccc2C1=O | 14
C[C@H](CO)N1C[C@H](C)[C@H](CN(C)S(=O)(=O)c2ccc(F)cc2)Oc2c(NS(=O)(=O)c3ccc(Cl)cc3)cccc2C1=O | 55
C[C@@H]1CN([C@@H](C)CO)C(=O)c2cc(NS(=O)(=O)c3cn(C)cn3)ccc2O[C@@H]1CN(C)S(=O)(=O)c1ccc(F)cc1 | -16
CC(=O)c1ccc(NC(=O)c2ccc(CSc3nc4ccc([N+](=O)[O-])cc4s3)cc2)cc1 | 28
Cc1ccc(OCC(=O)Nc2ccccc2C#N)cc1C | 12
C[C@H]1CN([C@@H](C)CO)C(=O)c2cc(NS(=O)(=O)c3ccc(F)cc3)ccc2O[C@H]1CN(C)C(=O)Nc1cccc2ccccc12 | 3
Cn1c(SCC(=O)Nc2ccc(F)c(Cl)c2)nnc1-c1ccccc1Cl | 29
Cc1nnc(SCC(=O)Nc2cc(Cl)ccc2Cl)s1 | 45
O=C(CNS(=O)(=O)c1ccc(Cl)cc1)Nc1cccc([N+](=O)[O-])c1 | 21
COc1ccc(CCNc2nc(-c3ccncc3)cs2)cc1OC | 38
C[C@H](CO)N1C[C@H](C)[C@@H](CN(C)Cc2ccncc2)Oc2ccc(NC(=O)CCC(F)(F)F)cc2C1=O | -3
Cc1ccc(S(=O)(=O)Nc2ccc3c(c2)C(=O)N([C@@H](C)CO)C[C@H](C)[C@@H](CN(C)C(=O)NC(C)C)O3)cc1 | 18
C[C@@H]1CCCCO[C@H](CN(C)Cc2ccncc2)[C@@H](C)CN([C@H](C)CO)C(=O)c2cc(NC(=O)Nc3ccc(F)cc3)ccc2O1 | 12
O=C(Oc1ccc(-c2ccccc2)cc1)c1cccs1 | 23
COc1cc([N+](=O)[O-])ccc1NC(=O)CCN1C(=O)C2C3C=CC(C4CC34)C2C1=O (stereo unspecified) | 34
COc1ccc(NC(=O)C(C)Oc2cc(C)c(Cl)c(C)c2)c([N+](=O)[O-])c1 (stereo unspecified) | 6
COc1ccc(N(CC(=O)N2CCN(c3ccccc3F)CC2)S(C)(=O)=O)c(OC)c1 | 9
CC(C)NC(=O)Nc1ccc2c(c1)C(=O)N([C@H](C)CO)C[C@@H](C)[C@H](CN(C)S(=O)(=O)c1cccs1)O2 | 12
COc1cc(S(=O)(=O)NC2CC(C)(C)NC(C)(C)C2)c(OC)cc1Cl | 15
COC(=O)c1ccccc1NC(=O)COc1ccc([N+](=O)[O-])c(C)c1 | 4
CC(C)(C)NS(=O)(=O)c1ccc(OCC(=O)N2CCOCC2)cc1 | 26
Cc1ccc(NC(=O)COc2ccc(I)cc2)c(C(=O)O)c1 | 15
CS(=O)(=O)N(CC(=O)Nc1ccccc1)c1cccc(F)c1 | -2
Cc1noc(C)c1NC(=O)N(C)C[C@@H]1Oc2c(NC(=O)Nc3ccccc3)cccc2C(=O)N([C@H](C)CO)C[C@H]1C | 1
COc1ccc(CN(C)C[C@@H]2OCCCC[C@@H](C)Oc3ccc(NC(=O)Nc4ccc(OC)cc4)cc3C(=O)N([C@H](C)CO)C[C@@H]2C)cc1 | 22
C[C@@H]1CN([C@H](C)CO)C(=O)c2cccc(NC(=O)C3CC3)c2O[C@H]1CN(C)S(C)(=O)=O | -15
Cc1ccc(OCC(=O)Nc2ccccc2C(=O)Nc2ccccc2)c(Br)c1 | 16

Next part:
SMILES | NOMO-1 viab
CCn1c(SCC(=O)c2ccc(Cl)cc2Cl)nnc1-c1cccnc1 | -4
CC1OC(OC2CCC3(C)C(CCC4(C)C3CC=C3C5CC(C)(C)CCC5(C(=O)OC5OC(CO)C(OC6OCC(OC7OC(CO)C(O)C(O)C7O)C(OC7OCC(O)C(O)C7O)C6O)C(O)C5O)CCC34C)C2(C)C)C(O)C(O)C1OC1OCC(O)C(O)C1O (stereo unspecified) | 0
C[C@@H]1CCCCO[C@H](CN(C)C(=O)CCCN(C)C)[C@@H](C)CN([C@H](C)CO)C(=O)c2cc(NC(=O)Nc3ccc(C(F)(F)F)cc3)ccc2O1 | -8
C[C@H]1CN([C@@H](C)CO)C(=O)c2cc(NS(=O)(=O)c3cn(C)cn3)ccc2O[C@@H]1CN(C)C(=O)Nc1ccccc1 | 5
CC(C)NC(=O)Nc1cccc2c1O[C@H](CN(C)S(=O)(=O)c1ccccc1)[C@@H](C)CN([C@H](C)CO)C2=O | 4
COc1ccc(CN(C)C[C@@H]2Oc3ccc(NC(=O)CCC(F)(F)F)cc3CC(=O)N([C@@H](C)CO)C[C@@H]2C)cc1 | 6
C[C@@H]1CN([C@H](C)CO)C(=O)Cc2cc(NC(=O)Nc3ccc(C(F)(F)F)cc3)ccc2O[C@@H]1CN(C)Cc1ccc2c(c1)OCO2 | 115*
CC(Sc1nc2ccccc2[nH]1)c1nc2ccccc2[nH]1 (stereo unspecified) | 4
C[C@H](CO)N1C[C@H](C)[C@H](CN(C)S(=O)(=O)c2cn(C)cn2)Oc2ccc(NC(=O)C3CC3)cc2CC1=O | 9
COc1ccc(S(=O)(=O)N(C)C[C@@H]2Oc3ccc(NS(C)(=O)=O)cc3C(=O)N([C@H](C)CO)C[C@H]2C)cc1 | 21
COc1ccc(S(=O)(=O)N(C)C[C@@H]2Oc3ccc(NC(=O)Nc4ccc(C(F)(F)F)cc4)cc3CC(=O)N([C@@H](C)CO)C[C@@H]2C)cc1 | 102*
CC(C)NC(=O)Nc1ccc2c(c1)CC(=O)N([C@@H](C)CO)C[C@H](C)[C@H](CN(C)Cc1ccc(-c3ccccc3)cc1)O2 | 22
Cc1noc(C)c1S(=O)(=O)N(C)C[C@@H]1Oc2ccc(NS(C)(=O)=O)cc2C(=O)N([C@H](C)CO)C[C@@H]1C | 2
COc1ccc(OC)c(NC(=O)Cn2cc(C(=O)C3CCCCC3)c3ccccc32)c1 | 14
CNC[C@H]1Oc2ccc(NS(C)(=O)=O)cc2C(=O)N([C@H](C)CO)C[C@H]1C | -6
C[C@@H]1CN([C@@H](C)CO)C(=O)c2cccc(NC(=O)c3ccc(-c4nccs4)cc3)c2O[C@@H]1CN(C)C(=O)NC1CCCCC1 | 43
C[C@@H]1CN([C@H](C)CO)C(=O)Cc2cc(NS(=O)(=O)c3ccc(Cl)cc3)ccc2O[C@@H]1CN(C)C(=O)Nc1ccc2c(c1)OCO2 | 12
COc1ccc(NC(=O)N(C)C[C@@H]2Oc3c(NC(=O)NC4CCCCC4)cccc3C(=O)N([C@@H](C)CO)C[C@H]2C)cc1 | 24
Cc1cc(C)n(Cc2ccccc2)c(=O)c1C#N | -12
C[C@H](CO)N1C[C@H](C)[C@H](CN(C)CC2CC2)Oc2ccc(NC(=O)C3CC3)cc2C1=O | -12

As entered above:
COc1ccc(N(CC(=O)N2CCN(c3ccccc3F)CC2)S(C)(=O)=O)c(OC)c1 in NOMO-1 viab: 9
CC(C(=O)Nc1ccc(Oc2ccccc2)cc1)N(c1ccc(Cl)cc1)S(C)(=O)=O (stereo unspecified) in NOMO-1 viab: 28
COc1cc(S(=O)(=O)NC2CC(C)(C)NC(C)(C)C2)c(OC)cc1Cl in NOMO-1 viab: 15
C[C@H](CO)N1C[C@H](C)[C@@H](CN(C)Cc2ccccc2)Oc2c(NS(=O)(=O)c3ccc(Cl)cc3)cccc2C1=O in NOMO-1 viab: 14

Entries listed so far containing a nitro group on carbon, in the order listed:
SMILES | NOMO-1 viab
COc1ccc(N(C(=O)c2ccccc2)S(=O)(=O)c2cccc([N+](=O)[O-])c2)cc1 | 37
CC(=O)c1ccc(NC(=O)c2ccc(CSc3nc4ccc([N+](=O)[O-])cc4s3)cc2)cc1 | 28
O=C(CNS(=O)(=O)c1ccc(Cl)cc1)Nc1cccc([N+](=O)[O-])c1 | 21
COc1cc([N+](=O)[O-])ccc1NC(=O)CCN1C(=O)C2C3C=CC(C4CC34)C2C1=O (stereo unspecified) | 34
COc1ccc(NC(=O)C(C)Oc2cc(C)c(Cl)c(C)c2)c([N+](=O)[O-])c1 (stereo unspecified) | 6
COC(=O)c1ccccc1NC(=O)COc1ccc([N+](=O)[O-])c(C)c1 | 4

Following part
SMILES | NOMO-1 viab
CCc1ccc(OCCSc2nc(C)cc(=O)[nH]2)cc1 | 0
COc1ccc(CN(C)C[C@H]2Oc3ccc(NC(=O)CCCCCC(=O)Nc4ccccc4N)cc3CC(=O)N([C@@H](C)CO)C[C@@H]2C)cc1 | 42
CCOC(=O)c1c(NC(=O)c2nc3ncccn3n2)sc(C)c1C | -1
Cc1ccc(S(=O)(=O)N(C)C[C@@H]2Oc3c(NC(=O)c4cc(C)nn4C)cccc3C(=O)N([C@H](C)CO)C[C@H]2C)cc1 | 7
COc1ccc(C2Nn3c(C)nnc3SC2C(=O)NCc2ccco2)cc1Cl (stereo unspecified) | 32
Cc1noc(C)c1NC(=O)Nc1ccc2c(c1)C(=O)N([C@@H](C)CO)C[C@@H](C)[C@@H](CN(C)C(=O)Nc1ccc(C(F)(F)F)cc1)O2 | 27
COc1ccc(S(=O)(=O)Nc2ccc3c(c2)CC(=O)N([C@H](C)CO)C[C@H](C)[C@H](CN(C)Cc2ccc4c(c2)OCO4)O3)cc1 | 13
C[C@H](CO)N1C[C@H](C)[C@H](CN(C)C)Oc2ccc(NC(=O)CCN3CCOCC3)cc2CC1=O | 21
C[C@@H]1CN([C@@H](C)CO)C(=O)c2cccc(NS(=O)(=O)c3cn(C)cn3)c2O[C@H]1CN(C)C(=O)Nc1ccc(F)cc1 | -6
COc1cc2c(cc1NC(=O)C(C)Oc1cccc(Cl)c1)oc1ccccc12 (stereo unspecified) | 7

The list is partial; rates above refer to the full screens.
